Tgondii IFNg: inhibitors of Toxoplasma gondii growth with IFN-gamma | Toxoplasma gondii growth in IFN-gamma-treated host cells; active compounds read low; reference of the scale not given here | activity change, negative = inhibition, %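 (about 20 µM by stock and volumes)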 | 69,000 tested, 3.8% active;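 active means below -70%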;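 further: host cells are HeLa cells infected with Toxoplasma gondii; parasite growth read as luciferase light; one replicate is shown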
* = called active by the depositor; i = inactive; & = joins results of further samples. Only part of the results is shown. The share of hits here may be higher or lower than overall.

SMILES | Tgondii IFNg
Cc1ccccc1NC(=O)Cn1c(=O)ccc2cc(S(=O)(=O)N3CCC(C)CC3)ccc21 | 43.2
CC(C)c1cc(C(=O)O)c2c(=O)[nH]c(=O)n(C)c2n1 | 14.8
CCN1CCC2(CC1)OC(=O)C(C)=C2C(=O)Nc1ccccc1OC | 161.6
CCCN(Cc1ccccc1OC)C(=O)c1cc(C)c(C)s1 | -49.1
Cc1oc(-c2ccc(OC(C)C)cc2)nc1CSc1nc2c(=O)[nH]cnc2n1C | -33.1
Cc1ccc2c(C)c(C(=O)N3CCC(Cc4nnc(CO)n4C)CC3)oc2c1 | -5.0
CC(C)NC(=O)N1CCC2(CC1)CCn1c(-c3cnn(C)c3)cnc12 | -5.2
Cc1oncc1C(=O)N1CC[C@H]2[C@@H]1CCN2S(C)(=O)=O | 88.8
CCCN(CCC)c1nc(-c2ccc(Cl)cc2)nc2ccccc12 | -2.5
CCOc1cc(-c2nccn2Cc2cc(-c3cccnc3)no2)ccc1O | 0.8

Given as tab-separated lines: part of the list above.
Structure	Tgondii IFNg
Cc1ccc2c(C)c(C(=O)N3CCC(Cc4nnc(CO)n4C)CC3)oc2c1	-5.0
CCOc1cc(-c2nccn2Cc2cc(-c3cccnc3)no2)ccc1O	0.8
CCCN(Cc1ccccc1OC)C(=O)c1cc(C)c(C)s1	-49.1
Cc1ccccc1NC(=O)Cn1c(=O)ccc2cc(S(=O)(=O)N3CCC(C)CC3)ccc21	43.2

The list goes on.
SMILES | Tgondii IFNg
CN1CCOCCOCCOCCN(C)C1=S | -6.8
COc1cccc(C(=O)N2CCC(N3CCCC3)CC2C(=O)O)c1 (stereo unspecified) | -2.6
c1cn(-c2ccc3cn[nH]c3c2)c(-c2ccc(C3CCCCO3)o2)n1 (stereo unspecified) | 0.7
Cc1ccc(C)c(C(=O)Nc2ccc(-c3nc(Cn4nc(C)cc4C)c(C)o3)cc2)c1 | -75.1*
Cc1ccc(C2(O)CCN(c3cc(C(=O)O)c4ccccc4n3)CC2)nc1 | -67.3
CC(C)CC#Cc1ccc([C@@H]2[C@@H](CO)N3CCCCN(C(=O)Nc4ccccc4)C[C@@H]23)cc1 | -54.4
CN1C(=O)CCc2cc(NC(=O)c3cnccn3)ccc21 | 167.4
c1cnn(-c2nc(N3CCOCC3)nc(N3CCOCC3)n2)c1 | -12.9
CN(Cc1ccccc1N1CCOCC1)C(=O)Cn1nnc(-c2ccccc2)n1 | -11.8
CN(C)c1nc(-c2ccccc2)nc(Nc2ccc(Cl)cc2Cl)c1C#N | 98.6
CC(O)CNc1nccc(CCC(F)(F)F)n1 (stereo unspecified) | 7.9
Clc1ccc(C2=NC(c3ccc4c(c3)OCO4)NN2)cc1 (stereo unspecified) | 22.4
CCN(C)c1ncnc2c1CCN(CCN1CCCC1)CC2 | -6.5
O=S(=O)(NCCc1csc(-c2ccc(F)cc2)n1)c1cc(F)ccc1F | -4.6
O[C@@H]1CN(Cc2cccc3[nH]ccc23)CC[C@H]1c1ccc(F)cc1 | -4.0
C[C@@H](NC(=O)C[C@H]1CC[C@H]2[C@@H](COC[C@H](O)CN2Cc2ccc(C(F)(F)F)cc2)O1)c1ccccc1 | -20.9
CC(C)N1CCC2(CC1)CC(NCc1nccn1C)c1ccccc12 (stereo unspecified) | 59.5
CC(C)NC(=O)N1CCC2(CC1)C(=O)NCCN2Cc1ccccc1 | 6.9
COc1ccc2c3c(n(C)c2c1)[C@H](CO)N(C(=O)c1ccncc1)CC31CCN(CC2CC2)CC1 | -9.0
Cc1ccsc1CN(C)Cc1coc2ccccc2c1=O | 6.7
COc1ccc(C2(C(=O)N3CC(c4cccnc4)C3)CC2(C)C)cc1 (stereo unspecified) | -5.7
COc1ccc(-c2nc(C)c(CCNC(=O)C(C)(C)C)s2)cc1OC | i
Cc1c(C)n(C(=O)CSc2nnc(-c3ccccc3)o2)c2ccccc12 | 6.4
O=c1[nH]c2ccccc2cc1CN1CC[C@@H](c2ccc3c(c2)OCO3)[C@H](O)C1 | 18.9
CN1C(=O)c2cc(NC(=O)c3cscn3)ccc2OC[C@@H]2O[C@@H](CC(=O)N3CCOCC3)CC[C@@H]21 | 3.6
COCC(=O)N1CCC2(CCOCC2NS(C)(=O)=O)CC1 (stereo unspecified) | -1.2
Cc1cccc(C)c1NC(=O)c1ccccc1NC(=O)CN(C)Cc1ccccn1 | 59.1
Cc1ccccc1CNC(=O)c1cn2c(n1)CCCC2 | 40.4
COc1ccc(-c2cc(C)ccc2OCC(N)=O)cc1OC | 9.6
CCOC(=O)c1nnn2c1nc(N(CC)CC)c1ccccc12 | -6.7

Reprinted from the part before: six compounds, followed by the next part.
SMILES | Tgondii IFNg
CN1C(=O)c2cc(NC(=O)c3cscn3)ccc2OC[C@@H]2O[C@@H](CC(=O)N3CCOCC3)CC[C@@H]21 | 3.6
COCC(=O)N1CCC2(CCOCC2NS(C)(=O)=O)CC1 (stereo unspecified) | -1.2
Cc1cccc(C)c1NC(=O)c1ccccc1NC(=O)CN(C)Cc1ccccn1 | 59.1
Cc1ccccc1CNC(=O)c1cn2c(n1)CCCC2 | 40.4
COc1ccc(-c2cc(C)ccc2OCC(N)=O)cc1OC | 9.6
CCOC(=O)c1nnn2c1nc(N(CC)CC)c1ccccc12 | -6.7
COCCN1CCC2(CC1)CC(NCc1cnn(C)c1)c1ccccc1O2 (stereo unspecified) | -44.7
Cc1nc(C(=O)N2CC(=O)N(C3CCCCC3)CC(OCc3ccccc3)C2)cs1 (stereo unspecified) | -4.0
CCC(CC)n1c(=O)n(Cc2ccncc2)c2cc(C(=O)O)cnc21 | -29.3
COc1ccc(C(=O)N2CCN(c3cccc(C(F)(F)F)c3)CC2)cc1OC | -79.3*
N/C(=N\OC(=O)c1ccc(Br)o1)c1ccccn1 | 153.7
CO[C@H]1CN(C)C(=O)c2cccc(C#N)c2OCC[C@@H]2CC[C@@H](OC)[C@@H](CN(C)C(=O)[C@@H]1C)O2 | -34.7
CN(C)C(=O)N1CCOCC2(CCN(Cc3nccn3C)C2)C1 (stereo unspecified) | 12.6
CCS(=O)(=O)Nc1ccc2c(c1)C(=O)N(C)[C@@H]1CC[C@H](CC(=O)NCc3ccc(OC)cc3)O[C@@H]1CO2 | -8.0
O=C(CN1CCCC(CCc2ccccc2C(F)(F)F)C1)N1CCOCC1 (stereo unspecified) | -4.2
N#Cc1cccc(NCCN2CCNC2=O)n1 | 65.8
Cc1cc(N2CCCC(N(C)S(=O)(=O)c3cccc(F)c3)CC2)nc(C)n1 (stereo unspecified) | 20.9
COCC(=O)N1[C@H](CO)[C@H]2c3ccccc3N(C)C[C@H]21 | 1.2
CO[C@H]1CCN(c2ccc(C)nn2)[C@H]1Cc1cnn(C)c1 | -46.8
O=C(Nc1nc2ccccc2s1)c1cncc(NS(=O)(=O)c2ccc(Cl)cc2)c1 | -34.7
CCCCN(Cc1ccco1)C(=O)c1coc2c1C(=O)CCC2 | 4.8
CC1Sc2ccc(Cl)cc2-c2nc(-n3cccc3)ncc21 (stereo unspecified) | 120.2
COCCN(C)C(=O)c1ccc2nnc(C3CN(S(C)(=O)=O)CCN3C)n2c1 (stereo unspecified) | -44.5
COCc1ncn2c1CN(C(=O)Nc1ccccc1)CC2 | i
O=C1[C@@H]2[C@H](Cc3ccc(O)cc3)N[C@]3(C(=O)Nc4ccccc43)[C@@H]2C(=O)N1c1ccc(F)cc1 | -8.4
Cn1c(Cn2cnc3ccccc32)nnc1SCC(=O)c1ccccc1 | 17.3
CC12CCC3c4ccc(OC(=O)c5ccccc5)cc4CCC3C1CCC2O (stereo unspecified) | -52.7
CC(=O)Nc1cccc(NC(=O)C(=O)NCCc2sc(-c3cccc(F)c3)nc2C)c1 | 34.8
CCc1nc(NC(=O)Cc2sc(C)nc2-c2ccccc2)sc1C | -69.9
Cc1ccc(-c2csc(-c3cccn3CC(=O)NCCN3CCC(C)CC3)n2)cc1 | -52.0
O=C(Cc1nc2ccc(Cl)cc2[nH]1)N1CCn2cncc2C1 | 21.6
COc1ccc(S(=O)(=O)Nc2cccc(SC)c2)cc1C(=O)N1CCOCC1 | 5.4
CNC(=O)CN1CCCC12CCN(c1ccccc1F)CC2 | -36.6
CCCc1nc(N(C)Cc2ccno2)c2cnn(C)c2n1 | -41.9
COC(=O)c1cccc(CN2CCC(c3nc4c(C)cccc4[nH]3)CC2)n1 | -3.2
CCCc1cnc(C)nc1-c1cccc2cnccc12 | -4.9
C=CC(=O)Nc1ccc2c(c1)C1(CCOCC1)C(=O)N2c1ccsc1 | -30.6
O=C1C(=O)c2ccccc2C(O)=C1c1ccccc1F | 7.2
CCOc1cccc(-c2nn3c(-c4ccco4)nnc3s2)c1 | 53.3
COc1cc(OC)cc(C(=O)N2CCC3(CC2)Nc2cc(OC)ccc2-n2cccc23)c1 | 20.9
CCS(=O)(=O)N1CCC2(CC1)COC(COCc1ccncc1)C2 (stereo unspecified) | -2.8
O=C(C[C@H]1CC[C@@H]2[C@H](COC[C@H](O)CN2Cc2cocn2)O1)N[C@@H]1CCN(Cc2ccccc2)C1 | 20.0
COc1c[nH]c(C(=O)N2CCCC(CCc3ccc(F)c(F)c3)C2)cc1=O (stereo unspecified) | -4.9
COc1ccc(S(=O)(=O)N(C)C[C@@H]2Oc3ccc(NC(=O)Cc4cn(C)c5ccccc45)cc3C(=O)N([C@H](C)CO)C[C@H]2C)cc1 | -64.9
O=C(C1COCCO1)N1Cc2cnn(Cc3ccc(F)cc3)c2C1 (stereo unspecified) | 21.8
S=C(NCc1csc2ccccc12)Nc1ccc2c(c1)OCO2 | 87.7

2 entries from above, with each value named:
C[C@@H](NC(=O)C[C@H]1CC[C@H]2[C@@H](COC[C@H](O)CN2Cc2ccc(C(F)(F)F)cc2)O1)c1ccccc1
  Tgondii IFNg = -20.9

CC(C)N1CCC2(CC1)CC(NCc1nccn1C)c1ccccc12 (stereo unspecified)
  Tgondii IFNg = 59.5

(further entries)
SMILES | Tgondii IFNg
CCc1nnc(CN2CCCC2c2nc3ccccc3s2)o1 (stereo unspecified) | -0.1
Cc1ccc(CC(=O)N2CC[C@@H]3C[C@H](c4n[nH]c(C)n4)O[C@H]3C2)cc1 | -0.4
Cc1ccc(NC(=O)CCC(=O)OC(C)C(=O)c2ccccc2)cc1C (stereo unspecified) | 5.3
Cc1nc(C(=O)N(Cc2c(F)cccc2Cl)C2CC2)cs1 | 284.1
COC[C@H]1CNC(=O)[C@H]2CCN(Cc3cnn(C)c3)CC[C@@H]12 | -0.5
O=C(NC(C(=O)c1ccccc1)n1c(=O)cc[nH]c1=S)c1ccccc1 (stereo unspecified) | 92.0
O=C(CCCCc1ccccc1)N1CCCn2cncc2C1 | -0.9
CCNC(=O)CCC/C=C/C[C@@H]1[C@H](C=C[C@H](O)CCc2ccccc2)[C@@H](O)C[C@@H]1O | 11.1
O=C(C1Cc2cc(Cl)ccc2O1)N1CCCC(c2ncc3c(n2)CCNC3)C1 (stereo unspecified) | -2.4
COc1ccc(CN(C)C[C@@H]2OCCCC[C@@H](C)Oc3ccc(NC(=O)C4CCCCC4)cc3C(=O)N([C@@H](C)CO)C[C@H]2C)cc1 | -3.2
C[C@@H]1CN([C@H](C)CO)C(=O)c2cccc(NC(=O)Nc3ccc4c(c3)OCO4)c2O[C@H]1CN(C)S(C)(=O)=O | 10.4
Cc1cccc(CN2CCC3(CCN(CC4CCOCC4)C3)C2=O)c1 (stereo unspecified) | -9.0
CC(C)N1c2sc(-c3ccccc3)nc2CC1C(=O)N1CCCCC1 (stereo unspecified) | -25.1
CCOC(=O)c1ccc(NC(=S)NCCc2ccccc2F)cc1 | 30.7
Cc1ccc(S(=O)(=O)c2nc(N)sc2Cl)cc1 | 17.9
Cn1c(=O)c2c(ncn2CC(=O)Nc2nnc(C3CCCCC3)s2)n(C)c1=O | -24.9
CCCNC(=O)Cn1ncc2c(N3CCCCC3)ncnc21 | 17.7
Cc1noc(-c2cc(=O)n(CC(=O)Nc3cccc(C)c3C)c3ccccc23)n1 | 12.9
CC(C)CN1C(=O)N(C)C2(CCN(Cc3cccc4nccnc34)CC2)C1=O | -2.5
COc1cccc(C(=O)N2CCC(CO)(Cc3ccccc3)CC2)c1OC | -0.9
CN(C(=O)C(Cl)Cl)c1ccc(OC(=O)c2ccco2)cc1 | -29.2&-1.3&5.2
CNC(=O)[C@@H]1CC2CN(C(=O)c3cc(C)oc3C)CC2N1C (stereo partly specified) | 0.4
O=C(O)CSc1nc2ccccc2n1Cc1ccccc1 | 13.1
O=C(O)CCn1c(-c2cccc3ccccc23)n[nH]c1=O | 22.0
Cc1nc(C2CCCN(S(=O)(=O)N(C)C)C2)ncc1C(=O)NCc1ccc(F)cc1 (stereo unspecified) | -6.5
c1coc(CN2CCC3O[C@H](COCC4CCOCC4)CCC32)c1 (stereo partly specified) | 304.5
CCC(C)NC(=O)c1nc(-c2cccc(F)c2)n2c1CCCCC2 (stereo unspecified) | -97.8*
CCOC(=O)CC1C(=O)NCCN1Cc1ccoc1 (stereo unspecified) | -26.5
C[C@@H]1CN([C@H](C)CO)C(=O)c2cc(NS(=O)(=O)c3cn(C)cn3)ccc2O[C@H]1CN(C)C(=O)Nc1cccc2ccccc12 | -1.1
Cc1ccc2[nH]cc(CN3CCCC(OCc4cccnc4)C3)c2c1 (stereo unspecified) | 19.4
O=C(O)C1CC(N2CCOCC2)CCN1C(=O)c1ccoc1 (stereo unspecified) | -4.9
CC(C)N(C)Cc1noc2c1CN(Cc1nccn1C)CC2 | 4.4
COCCC1CN(C(=O)COc2c(C)ccc(C)c2C)CCO1 (stereo unspecified) | -12.3
CCN1CCc2noc(C3CCN(C(=O)c4csc(NC(C)=O)n4)CC3)c2C1 | 32.4
Cc1ccc(Nc2nnc(C3C(=O)N(C)C4(C)CC3c3cc(Br)ccc3O4)s2)cc1 (stereo unspecified) | -0.5
COc1ccc(OCC(O)CNC(=O)Nc2cccc3ccccc23)cc1 (stereo unspecified) | -22.4
CN(C)CCN1CC2(CCN(C(=O)c3ccc[nH]3)CC2)OCC1=O | 7.0
CCOC(=O)c1nc(NCCCN2CCN(c3cc(C)ccc3C)CC2)c2ccccc2n1 | -55.1
O=C(CC1=CCNCC1)N1CCC(c2cc(Cc3ccccc3)[nH]n2)CC1 | -1.5
CCC(C(=O)Nc1ccc2c(c1)OCCO2)c1ccccc1 (stereo unspecified) | 32.1
